D2 ag: agonists of human D2 dopamine receptor (beta-arrestin) | P14416 | DiscoveRx PathHunter D2 beta-arrestin, luminescence, 90 min; 100% = 57 uM dopamine signal | activation, % (test concentration not listed) | 360,000 tested, 0.084% active; in the data active = activation above about 40%; inconclusive = about 15% to 40%; inactive = below about 15%; also: compound concentration not given in the record; the text of the record calls up to 30% inactive
Target sequence (P14416 whole entry, looked up): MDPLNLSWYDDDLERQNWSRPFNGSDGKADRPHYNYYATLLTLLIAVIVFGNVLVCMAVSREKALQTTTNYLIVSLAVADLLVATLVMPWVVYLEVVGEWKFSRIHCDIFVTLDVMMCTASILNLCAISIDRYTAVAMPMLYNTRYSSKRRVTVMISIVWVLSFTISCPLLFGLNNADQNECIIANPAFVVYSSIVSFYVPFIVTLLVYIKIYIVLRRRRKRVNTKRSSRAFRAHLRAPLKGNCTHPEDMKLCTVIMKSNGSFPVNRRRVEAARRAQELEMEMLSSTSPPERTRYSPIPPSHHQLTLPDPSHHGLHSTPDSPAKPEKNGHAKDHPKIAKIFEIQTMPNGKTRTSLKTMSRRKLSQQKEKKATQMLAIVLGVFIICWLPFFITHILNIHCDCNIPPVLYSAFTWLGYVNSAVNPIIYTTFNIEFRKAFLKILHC
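Agonist mode: compounds alone added to overnight-plated D2 PathHunter cells for 90 min at 37 C, with 57 uM final dopamine (EC100) defining full response. Beta-arrestin recruitment detected by chemiluminescent reagent, read after 1 h at ambient temperature.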
Sfp inh: inhibitors of Bacillus subtilis Sfp phosphopantetheinyl transferase | Biochemical Sfp PPTase activity, qHTS | Potency, µM, without a hit: max response, negative = inhibition, usual class: inhibitors | 310,000 tested, 3.5% active | AID 1490; active = well fitted inhibition curve with a large enough effect; inconclusive = small, poorly fitted or top-dose-only effect, or another doubt; inactive = no such curve, though single readings can be large or run the other way;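 also: the enzyme is Sfp with the accession as filed and its product quenches rhodamine fluorescence; potency is read from the fitted curve at half-maximal effect; 0% = enzyme reaction without inhibitor and -100% = no enzyme wells; top concentration of the series not given in the record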
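Buffer: 50 mM Hepes-Na pH 7.6, 10 mM MgCl2, 0.01% Nonidet P-40, 0.01% BSA. Enzyme 15 nM, pre-exposed to compound 15 min; substrates then added and fluorescence change tracked over 30 min.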
TRPV1 potentiator: human TRPV1 potentiation | TRPV1-expressing cells, Fluo-8 calcium influx, capsaicin EC20 potentiation; host cell line not named in the record; control for the full effect not named in the record | 320,000 tested, 0.02% active | potentiation, % at 8.33 µM | Q8NER1; active means potentiation above 80%; inconclusive means 30% to 80%; inactive means below 30%; also: 0% is about no effect
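Cells expressing TRPV1 were dye-loaded with Fluo-8 and read kinetically: 10 s baseline, 3 min after compound (agonist portion), then 2 min after EC20 capsaicin (allosteric enhancer portion). Calcium-bound dye fluorescence at 480/520 nm.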
CtBP-E1A blk: inhibitors of CtBP/E1A interaction; activity change, % (no concentration beside the values); AlphaScreen GST-E1A/His-CtBP binding, 1536-well; active compounds read low; control for the full effect not named in the record; 340,000 tested, 0.49% active; in the data active means activity change below about -65%; inconclusive means about -30% to -65%; inactive means above about -30%; also: % is scaled to controls: 0 for no effect and ±100 for the full control effect
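Protein mix (5X: 125 nM each GST-E1A, His-CtBP) was incubated with pinned compound 2 h at 37 deg C in dark, in 50 mM Tris pH 8.0 buffer with 300 mM NaCl. Glutathione donor and nickel acceptor beads followed; AlphaScreen signal read after 1 h.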
PINK1 expr mod: changes PINK1 expression; PINK1 immunofluorescence, high-content cytometry, 24 h; 410,000 tested, 0.2% active; Potency, µM (top dose mostly 76.6 µM), inactives show top-dose activation (PINK1 increase), actives largely listed as activators; active = well fitted activation curve with a large enough effect; inconclusive = small, poorly fitted or top-dose-only effect; inactive = flat fitted curve, though single readings scatter; cell line not stated here;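 also: potency is read from the fitted curve at half-maximal effect; % of control where 0% means no effect; nearly all actives have a fitted effect of over 65% in size; a mitochondrial uncoupler was the plate control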
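Stable cell line treated 24 h with compounds at 5 concentrations (CCCP controls), then fixed and immunostained for PINK1 plus nuclear and cell stains; PINK1 immunofluorescence quantified by laser-scanning microplate cytometry.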
Six1-Eya2 inh: inhibitors of human Six1/Eya2 interaction. Q15475+O00167. AlphaScreen GST-Six1/His-Eya2 binding, biochemical; active compounds read low; control for the full effect not named in the record. activity change, % (concentration not given with the values). 360,000 tested, 0.56% active. AID 651725; in the data active = activity change below about -65%; inconclusive = about -30% to -65%; inactive = above about -30%; also: % is scaled to controls: 0 for no effect and ±100 for the full control effect
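Six1/Eya2 binding was read as AlphaScreen signal after compounds were pinned into GST-Six1 plus His-tagged Eya2 (5X stock 250/500 nM) in pH 8.0 Tris/NaCl/TCEP buffer, beads added, then incubated 1 h, 37 C, dark.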
D2 PAM: human D2 receptor positive allosteric modulation; potentiation, % (no concentration beside the values); AID 624464; P14416; DiscoveRx D2 beta-arrestin cells, luminescence, 90 min; 100% = 57 uM dopamine signal; 360,000 tested, 0.23% active; active = potentiation of 50% or more; inconclusive = 30% to 50%; inactive = 30% or less;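 also: compound concentration not given in the record; tested on top of an EC20 dose of dopamine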
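PathHunter D2 cells, attached overnight at 37 deg C, received compound in DMSO plus dopamine at EC20 (50 nM final) for 90 min at 37 deg C. Beta-arrestin recruitment was read as luminescence after 1 h with detection reagent at ambient temperature.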
Numbers without * were called inactive; ? = inconclusive; nt = not tested or not shown; & = joins results of further samples; [ ] = remark or other dose.

SMILES	D2 ag	Sfp inh	TRPV1 potentiator	CtBP-E1A blk	PINK1 expr mod	Six1-Eya2 inh	D2 PAM
CC1(C)CC2(CCO1)CNC(=O)O2 (stereo unspecified)	-1.2	-4%	-7	-8	3.7%[38.3 µM]	-2	-7
CC1(c2nnc(-c3ccc(F)cc3)o2)CC(c2cccnc2)=NO1 (stereo unspecified)	-2.5	nt	nt	nt	-0.5%	2	-14
CCSc1nnc(NC(=O)c2cnccn2)s1	0.1	-4%	-7	1	-2.9%[38.3 µM]	-1	-1
COCc1nnc(NC(=O)c2ccc(S(=O)(=O)N(C)Cc3ccccc3)cc2)o1	-2.9	16%	19	-26	6.0%	-3	3
COC(=O)CSc1nc2ccc(N)cc2s1	-0.9	-24%	4	-3	0.4%	-1	6
Cc1ccc(C(=O)NCC(=O)OCC(=O)NC2CCCC(C)C2C)s1 (stereo unspecified)	-7.6	6%	-9	3	0.7%	9	-4
CCN(c1ccccc1)S(=O)(=O)c1cccc(C(=O)NCC(c2ccc(F)cc2)N2CCOCC2)c1 (stereo unspecified)	-2.3	nt	nt	1	2.2%	0	-4
O=C(CCCCn1c(=O)[nH]c2ccsc2c1=O)NCCc1ccccc1	-0.5	2%	8	7	2.0%	-2	4
O=C(Nc1ccc(C(=O)Nc2ccccc2Cl)cc1)c1cccnc1	3.9	18%	1	-2	-0.6%	0	14
O=C(NNC(=S)Nc1ccccc1Cl)c1ccccc1	-7.6	1%	-11	-3	-0.8%	1	-15
CN(C(=O)COC(=O)c1ccc2c(c1)OCO2)C1CCCCC1	3.6	nt	nt	0	-1.0%	9	-5
CCN(CC(=O)Nc1c(F)cccc1F)C(=O)/C=C/c1ccc(Br)s1	-3.1	nt	0	-15	-1.2%	3	-20
CCOC(=O)N1CCC(Nc2nc(OC)nc(OC)n2)CC1	-1.3	21%	3	3	0.9%	4	-5
Cn1cc(CN2CCC(C(=O)Nc3cccc(-c4cscn4)c3)CC2)cn1	-5.5	11%	12	2	-1.3%	5	-18
Cc1ccccc1C(=O)N1CCN(c2ccc(NC(=O)c3ccc4c(c3)OCCO4)cc2)CC1	0.4	4%	-1	1	-0.5%	-18	-2
O=C1c2ccccc2C(=O)N1CCCc1c[nH]c2ccccc12	3.8	8%	-8	-11	-0.6%	?	-8
OC(CNCc1ccccc1)Cn1ccc2ccccc21 (stereo unspecified)	-5.1	-7%	3	-9	8.9%	-7	-8
CCN(CC(=O)Nc1ccccc1C(F)(F)F)C(=O)c1cc(-c2ccccc2)nn1-c1ccccc1	0.2	nt	3	2	14%	-3	10
O=C(Nc1cc(C(F)(F)F)ccc1N1CCOCC1)c1cccnc1Cl	4.1	5%	-13	-1	-0.1%	9	18
O=C(NC1CCCC1)C1CCC(=O)N1C1CCCC1 (stereo unspecified)	1.2	18%	-3	-4	0.4%[38.3 µM]	2	-8
CC1CCCCN1C(=O)c1cccc(NC(=O)c2ccccc2)c1 (stereo unspecified)	-4.0	-2%	-3	0	-0.6%	-9	-9
O=C(NCC1CC1)c1ccc(Nc2nc3ccc(Br)cc3[nH]2)cc1	-0.1	32µM*	-7	-2	1.3%	-4	-3
COc1ccc(CNS(=O)(=O)c2cc3c(cc2C)N(C)CCO3)cc1	0.5	6%	13	-6	4.6%&0.3%	7	-3
COc1ccccc1/C=N/NC(=O)c1nnn(-c2nonc2N)c1CSC1=NCCS1	-6.4	7%	-14	-2	3.6%	6	3
O=C(COC(=O)c1ccc(O)cc1)Nc1cccc(S(=O)(=O)N2CCCCC2)c1	3.7	21%	-16	-7	1.1%	-6	-2
COc1cccc(NC(=O)c2nn(C)c(C(=O)Nc3cccc(OC)c3)c2[N+](=O)[O-])c1	1.0	4%	1	-5	-1.3%	-22	-8
Cc1ccccc1OCC(=O)Nc1ccccc1NC(=O)c1ccco1	-4.8	16%	-2	-2	6.6%	4	-1
O=C(CNC(=O)c1ccccc1Cl)N/N=C/C=C/c1ccccc1	3.6	7%	2	-4	1.7%	-1	4
CC1=C(C(=O)OCC2CCCO2)C(c2coc3ccccc3c2=O)C2=C(CC(C)(C)CC2=O)N1 (stereo unspecified)	0.3	18%	-15	-12	0.8%	14	1
C=CCN(CC=C)C(=O)c1cccc(OC2CCN(S(=O)(=O)N(C)C)CC2)c1	7.4	-1%	0	8	1.3%	5	-2
Cc1ccc(S(=O)(=O)CC(=O)Nc2ccc(F)c(F)c2F)cc1	2.5	6%	-8	5	-1.1%	8	-8
Cc1ccccc1CNC(=O)C(=O)Nc1nccs1	2.8	-3%	0	7	0.0%	-1	-7
O=C(NCCCCc1ccccc1)c1ccccc1Cl	4.7	5%	-15	3	-1.0%	1	-18
CC(=O)N1C(=O)NC2=C(C(=O)CCC2)C1c1cccc([N+](=O)[O-])c1 (stereo unspecified)	1.2	0%	-8	-3	-1.3%	39	-9
COC(=O)Cc1ccc(OC2(C)CCN(Cc3ccc4c(c3)OCCO4)C2)cc1 (stereo unspecified)	-6.4	nt	nt	-9	0.6%	-3	-17
O=C(O)c1nnsc1-c1csnn1	0.2	nt	nt	-11	1.0%	9	-6
BrCCOCCOc1ccc2ccccc2c1	1.8	2%	-4	7	-2.5%	3	-1
O=C(CC1C(=O)NCCN1C(=O)Nc1ccccc1)Nc1ccc2c(c1)OCO2 (stereo unspecified)	-2.7	20%	2	-2	0.0%	5	-5
Cn1c(=O)c2[nH]c(CCCCc3nc4ccccc4[nH]3)nc2n(C)c1=O	-0.5	nt	nt	0	4.8%	-7	-4
COc1ccc2c(c1)CC/C(=C\c1ccc(OC)c(Cn3nc(C)cc3C)c1)C2=O	-0.8	35µM*	11	-15	-1.0%	-12	-20
COc1ccc(C#Cc2ccc3c(c2)c(=O)c2ccccc2n3C)cc1	-1.1	-8%	7	nt	-0.1%	9	-4
Cc1ccccc1OCC(=O)N(Cc1ccco1)c1c(N)n(Cc2ccccc2)c(=O)[nH]c1=O	-0.8	nt	4	nt	21%	0	-5
CC1(C)Cc2ccccc2-c2nc3ccccc3c(=O)n21	1.8	-2%	8	15	0.2%	6	14
O=S(=O)(Nc1nc(-c2sccc2Cl)cs1)c1cc(Cl)ccc1Cl	-4.4	-24%	nt	1	26%	-4	-5
O=C(CN1CCN(c2ccc(F)cc2)CC1)Nc1ccc(F)c(F)c1	-3.3	9%	-11	2	-0.1%	-8	-25
CC(=O)Nc1ccc(Br)cc1C(=O)C(=O)O	-17	14%	2	-6	0.8%	3	-66
CC(=O)Nc1ccc(OCC(=O)NCc2ccc3c(c2)OCO3)cc1	-1.2	24%	?	-11	1.1%	-2	-5
Nc1ccc2nc3c(c(Cl)c2c1)CCCC3	5.5	-21%	22	6	0.3%	0	-3
CC1(C)CC(=O)C=C(NC2CC(C)(C)NC(C)(C)C2)C1	-5.2	14%	4	1	nt	5	-20
CCN(c1ccccc1)S(=O)(=O)c1ccc(OC)c(NS(=O)(=O)c2cccs2)c1	-4.2	9%	-11	nt	0.6%	9	-15
CCn1nccc1NC(=O)c1csc([C@@H]2C[C@H](O)[C@@H](CO)O2)n1	-1.8	nt	nt	6	2.2%	8	-7
CCc1ccc(N2C(=O)CN(CC(=O)OC)C2=S)cc1	0.7	28%	-9	4	1.8%	9	-3
CCc1nc2ccc(C(=O)NCCCN3CCCC3=O)cn2c1N(C)Cc1ccc(OC)cc1	-0.4	nt	nt	-4	1.2%	-2	-4
COCCNC(=O)CSc1nc2cc(OC)c(OC)cc2c(=O)n1CCC1=CCCCC1	-1.0	12%	12	-9	3.3%	7	-20
Cc1ccn2cc(CCNC(=O)COc3ccccc3)nc2c1	0.1	16%	-7	5	1.9%	0	-8
CN(C(=O)c1ccc(OC2CCN(Cc3ccccn3)CC2)cc1)C1CCCCC1	-3.5	17%	-1	3	0.2%	-1	-10
COc1ccccc1CNC(=O)c1cc(-c2ccc(F)cc2C)n[nH]1	0.7	nt	nt	2	0.4%	1	-1
Cc1ccc(/C=N/NC(=O)c2ccc(NC(=O)c3ccccc3Cl)cc2)o1	-1.8	20%	5	-9	-2.5%	-13	-6
CCOC(=O)C1(C)C=C(Nc2ccccc2)C(=O)N1c1ccccc1 (stereo unspecified)	0.2	21%	-7	3	2.3%	-2	3
c1ccc(-c2nnnn2-c2ccccc2)cc1	-6.5	2%	-7	-3	-1.6%	-1	-4

Compound profiles, from the list above.
CCN(c1ccccc1)S(=O)(=O)c1cccc(C(=O)NCC(c2ccc(F)cc2)N2CCOCC2)c1 (stereo unspecified) as listed: D2 ag: -2.3; Sfp inh: nt; TRPV1 potentiator: nt; CtBP-E1A blk: 1; PINK1 expr mod: 2.2%; Six1-Eya2 inh: 0; D2 PAM: -4
CC1(C)Cc2ccccc2-c2nc3ccccc3c(=O)n21 as listed: D2 ag: 1.8; Sfp inh: -2%; TRPV1 potentiator: 8; CtBP-E1A blk: 15; PINK1 expr mod: 0.2%; Six1-Eya2 inh: 6; D2 PAM: 14

(next part)
SMILES	D2 ag	Sfp inh	TRPV1 potentiator	CtBP-E1A blk	PINK1 expr mod	Six1-Eya2 inh	D2 PAM
COC(=O)c1ccccc1-c1ccc(/C=N/NC(N)=O)o1	-1.0	5%	-22	6	1.5%	2	-3
Cc1ccc(S(=O)(=O)N2CCC(C(=O)OCC(=O)N3CCc4ccccc43)CC2)cc1	-4.1	-1%	19	0	1.0%	-4	-1
Cn1c(=O)c2c(SCc3c(F)cccc3Cl)nc(CC(C)(C)C)nc2n(C)c1=O	-3.8	4%	-10	7	1.1%	5	-6
COc1cccc(OC)c1C(=O)OCC(=O)NCc1ccco1	-4.5	nt	-6	-2	-2.0%	5	1
O=C(CNC(=O)C1COc2ccccc2O1)N/N=C\c1cccc(O)c1 (stereo unspecified)	-3.0	2%	-4	1	1.5%	5	-3
O=[N+]([O-])c1ccc(N/N=C2\CC3CC=CC23)cc1 (stereo unspecified)	3.6	-6%	-2	-14	18%	-13	3
N#Cc1ccc(OCC(=O)OCC(=O)Nc2ccc(N3CCOCC3)cc2)cc1	-4.1	nt	11	2	-3.3%	8	-9
CC(=O)N1CCCc2ccc(NS(=O)(=O)c3ccc(C)cc3)cc21	-0.8	nt	4	0	5.1%	0	-16
COc1ccc(OCC(=O)NN2Cc3ccccc3C2=N)cc1	0.2	17%	8	-2	-1.2%	10	-12
S=C(Nc1ccc(Cl)cc1)N(CCCN1CCOCC1)Cc1ccco1	1.1	7%	2	-13	-0.2%	1	-4
Cc1ccn2c(C(=O)N/N=C\c3cccs3)c(C)nc2c1	-0.1	9%	17	-6	?	-8	-5
